Sa ugtP lethal – compounds lethal to S. aureus RN4220 ugtP deletion mutant; growth inhibition, % (no concentration beside the values); 330,000 tested, 0.54% active; OD600 growth, 16 h; some inactives read as strong as hits;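 active = z-score under -3 and OD600 up to 0.15 on both plates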;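 also: plate controls were untreated wells for no effect and antibiotic for full effect; wells of about 80 µL received 100 nL stock; the first replicate is given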
RN4220 kill – S. aureus RN4220 growth inhibition; OD600, 16 h; inhibition, % (test concentration not listed); 330,000 tested, 0.33% active; AID 1259311;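 active = z-score of -3 or lower and OD600 up to 0.18 on both plates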;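 also: plate controls were untreated cells for no effect and reference antibiotic for full effect; stock transfer was 100 nL into about 80 µL; one replicate is shown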
Mtb hypoxia rep – reduces hypoxia-regulated biosensor signal in M. tuberculosis. M. tuberculosis hypoxia-regulated fluorescent reporter, fluorescence. fluorescence inhibition, % (no concentration beside the values). 300,000 tested, 0.1% active;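 active = 35 to 45% if threefold the growth effect, above 45% if 1.5-fold the growth effect; inactive = the rest, general growth blockers included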;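 also: wells of about 50 µL received 100 nL stock; 0% = vehicle wells and 100% = reference inhibitor wells; whole bacteria with a GFP reporter of the hypoxia response; strong numbers were not always called active; many hits fall short of the cut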
BJeLR lethal – BJeLR cell viability loss; BJeLR (HRASV12) viability, CellTiter-Glo ATP luminescence, 48 h; reference of the scale not given here; 300,000 tested, 0.17% active; inhibition, % (no concentration beside the values);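 active = replicate mean above 50%; inconclusive = above 50% but judged a plate artefact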;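 also: 50 nL library stock added to about 25 µL; numbers are from one replicate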
PrP 5UTR inh – suppresses PrP 5' UTR mRNA reporter expression; cell-based PrP 5' UTR mRNA reporter, plate reader; AID 488862; 340,000 tested, 0.35% active; inhibition, % (no concentration beside the values);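 active = every replicate at 50% or more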;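 also: 0 = median of the neutral control wells; tested in H4 reporter cells; numbers are from one replicate; inactives centre near -14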
Autofluor counter – compound fluorescence in toxin protease inhibitor counterscreen; compound autofluorescence counterscreen, microsphere flow cytometry; hits give high values; fluorescence intensity (no concentration beside the values); 360,000 tested, 3.1% active; AID 624483;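 active = at least 3 SD above the mean of all compounds, about 16000 in these data; inconclusive = too few beads counted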;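 also: 100 nL of 1 mM stock went into each well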
Mtb hypoxia rep growth – recorded beside Mtb hypoxia rep, whose call it bears; growth inhibition, %; measured here: M. tuberculosis growth (absorbance);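 0% = vehicle and 100% = reference antibiotic; read after six days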
Numbers without * were called inactive; ? = inconclusive; . = no result given; & = joins results of further samples.

SMILES	Sa ugtP lethal	RN4220 kill	Mtb hypoxia rep	Mtb hypoxia rep growth	BJeLR lethal	PrP 5UTR inh	Autofluor counter
O=C(NNC1OC(CO)C(O)C(O)C1O)c1cccc(Br)c1 (stereo not given)	7	1.1	4	6	10	-9	3409
O=c1c2cc(-c3ccccc3)sc2nc2n1CCC2	6	8.1	8	2	5	.	.
CCc1cccc(CC)c1NC(=O)c1cccc(S(=O)(=O)N2CCN(C)CC2)c1	6	-0.4	6	8	-6	-9	6094
CCOC(=O)c1c(-c2ccc(C)s2)csc1N	4	2.8	11	8	2	-1	2339
CCCCN(C(=O)/C=C/c1ccc(OCC(C)C)c(OCC)c1)c1c(N)n(CCC)c(=O)[nH]c1=O	6	-1.1	-2	-5	0	-24	2159
COCCCn1c(SCC(=O)Nc2oc(C)c3c(C)n[nH]c(=O)c23)nc2ccccc2c1=O	5	0.4	-11	6	-9	-7	4992
CCOc1ccc(CNC(=O)Cn2ccc3cc(S(=O)(=O)N4CCCCCC4)ccc32)cc1	-5	0.6	-2	8	4	-22	.
Cc1ccc(C)c(-c2csc(NC(=O)c3cnccn3)n2)c1	-23	0.2	-11	-2	2	12	3324
O=c1c2cc(Br)ccc2nc(-c2ccc([N+](=O)[O-])cc2)n1O	40	63	3	9	1	-25	4768
Cc1cccc(OCC(=O)Nc2cccc(C(=O)Nc3ccccc3C(=O)O)c2)c1	10	15	8	7	-3	-116	1922
COc1ccc(CCNC2CC(=O)N(CCc3ccccc3)C2=O)cc1OC (stereo not given)	5	4.3	5	13	1	-22	7895
O=C(COc1cc(Cl)ccc1Cl)Nc1ccc2[nH]c(=O)[nH]c2c1	4	4.3	0	-3	8	-17	6478
CCCCN1C(=O)N(C)C2C1N(C)C(=O)N2CCCC (stereo not given)	7	2.9	.	.	11	-16	4730
COc1ccccc1C(=O)COC(=O)Cc1c[nH]c2ccccc12	-1	0.0	13	8	2	-5	5107
CCc1ccc(OCCCN=C(C)c2c(O)n(C)c(=O)n(C)c2=O)cc1	-5	0.8	14	8	0	1	3869
CCC1=Nc2cc(C(=O)NCCCN3CCOCC3)ccc2Sc2ccc(Br)cc21	4	4.8	12	8	-5	-11	4907
COc1ccc(C2/C=C\CN(C(=O)Oc3ccccc3)CC(=O)N2Cc2ccc(F)cc2)cc1 (stereo not given)	.	.	.	.	1	-1	2903
COc1ccc(CCNC(=O)C2CCN(S(=O)(=O)c3cccc4cccnc34)CC2)cc1OC	1	2.7	-4	4	17	1	5861
COc1cccc(-c2ccc(SCC(=O)NC3CCCCC3)nn2)c1	4	-1.7	3	-3	8	-78	6072
CN(C)c1ccc(NC(N)=S)cc1	-2	4.8	.	.	-7	-37	1959

Random excerpt: two records from the list
SMILES	Sa ugtP lethal	RN4220 kill	Mtb hypoxia rep	Mtb hypoxia rep growth	BJeLR lethal	PrP 5UTR inh	Autofluor counter
Cc1ccc(C)c(-c2csc(NC(=O)c3cnccn3)n2)c1	-23	0.2	-11	-2	2	12	3324
CCc1cccc(CC)c1NC(=O)c1cccc(S(=O)(=O)N2CCN(C)CC2)c1	6	-0.4	6	8	-6	-9	6094

The listing picks up with the 5 entries that preceded the break.
SMILES	Sa ugtP lethal	RN4220 kill	Mtb hypoxia rep	Mtb hypoxia rep growth	BJeLR lethal	PrP 5UTR inh	Autofluor counter
CCC1=Nc2cc(C(=O)NCCCN3CCOCC3)ccc2Sc2ccc(Br)cc21	4	4.8	12	8	-5	-11	4907
COc1ccc(C2/C=C\CN(C(=O)Oc3ccccc3)CC(=O)N2Cc2ccc(F)cc2)cc1 (stereo not given)	.	.	.	.	1	-1	2903
COc1ccc(CCNC(=O)C2CCN(S(=O)(=O)c3cccc4cccnc34)CC2)cc1OC	1	2.7	-4	4	17	1	5861
COc1cccc(-c2ccc(SCC(=O)NC3CCCCC3)nn2)c1	4	-1.7	3	-3	8	-78	6072
CN(C)c1ccc(NC(N)=S)cc1	-2	4.8	.	.	-7	-37	1959
CC(C)c1ccc(NC(=S)N2CCN(Cc3ccccc3)CC2)cc1	7	-2.7	2	7	4	-35	4042
NC(=O)c1ccc(NC(=O)c2cccc(Oc3ccccc3)c2)cc1	5	-1.6	-19	0	-1	-15	2684
c1ccc(CN2CCC(N3CCC(N4CCCCCC4)CC3)CC2)cc1	7	5.9	11	3	-3	1	4229
CCOc1ccc(N2CCc3c(C)nc(SC)nc32)cc1	-5	6.8	19	10	-2	-17	4103
O=S(=O)(c1cccc(Br)c1)N1CCN(c2ccnc3cc(Cl)ccc23)CC1	-6	2.4	7	-3	-8	-21	5239
Cc1ccc(-c2c(C)nn3c(N4CCOCC4)cc(C)nc23)cc1	9	-4.6	-4	-2	-5	-9	3415
COc1ccc(C(C(=O)NC(C)(C)C)N(Cc2ccc(C)cc2)C(=O)CCC(=O)Nc2cc(C)on2)cc1 (stereo not given)	4	9.3	16	7	5	-13	2489
CCCCCCCC(O)CC(CC1CCCCC1)C(=O)NN (stereo not given)	-3	6.3	.	.	12	12	2458
O=C(c1cc2ccccc2oc1=O)N(c1ccccc1)C1C=CS(=O)(=O)C1 (stereo not given)	-4	2.0	17	3	-1	-13	2614
O=C(CC1CC=CCC(Cc2ccc(F)cc2)C(=O)OCCNC1=O)NCCO (stereo not given)	4&2&4	3.8&4.7&1.8	12&18&11	3&10&-1	.	.	.
CC1S/C(=N/N=C/c2cccc([N+](=O)[O-])c2)NC1=O (stereo not given)	.	.	.	.	-5	-13	4905
CCNS(=O)(=O)c1ccc(NC(=O)c2cncc(Br)c2)cc1	12	3.7	5	0	-5	-14	2392
COc1ccc(CCN=C(N)NS(=O)(=O)c2ccc(C)c(C)c2)cc1	-4	4.5	-6	-11	-7	-6	2118
C(=N\Nc1nc2ccccc2s1)/c1ccc2c(c1)OCO2	.	.	.	.	-11	-91	2593
O=C(NC1CC2CCCC(C1)N2Cc1ccc(F)cc1)c1ccc(F)cc1 (stereo not given)	-4	-1.1	-7	2	-6	-11	4318
Cc1ccc(C)c(OC(=O)c2ccncc2)c1	6	7.6	6	-2	2	-6	4292
Cc1ccc(S(=O)(=O)N2C(c3cccc(C)c3)CC=C(C(=O)O)C2c2cccc(Cl)c2)cc1 (stereo not given)	59	30	14	5	.	.	.
Cc1cc(OCC(=O)NCc2ccc(S(N)(=O)=O)cc2)c2c3c(c(=O)oc2c1)CCC3	2	1.0	-3	2	2	-20	4018
CCC(Oc1ccccc1)C(=O)NCc1cccnc1 (stereo not given)	1	6.1	1	6	-1	-1	8683
O=C(CCCN1C(=O)c2cccc3cccc(c23)C1=O)Nc1nccs1	1	5.2	3	14	17	-21	4707
Cc1cccc(C2(c3cccc(C)c3)OC(=O)c3ccccc32)c1	82*	-11	5	8	2	-8	3754
O=C(O)CC(NC(=S)NCc1ccccc1)C(=O)O (stereo not given)	-3	6.8	10	2	-2	-16	10928
Cc1cccc(N(C(=O)c2cnc3n(c2=O)CCS3)C2CCCCC2)c1	12	2.9	2	-5	0	8	22301*
Oc1cccc(C=NNc2ncnc3c2ncn3Cc2ccccc2)c1	1	-0.8	13	4	.	.	.
COc1cc(C=CC(=O)N2CCC=CC2=O)cc(OC)c1OC	3	2.5	10	9	.	.	.
Cn1c(N)c(C(=O)COC(=O)CC(NC(=O)c2ccccc2Cl)c2ccccc2)c(=O)n(C)c1=O (stereo not given)	3	6.5	15	2	17	-29	4618
CC(=O)Nc1nc(CC(C)C)cc(-c2ccccc2)c1C#N	5	4.0	12	9	2	-4	5909
COc1ccc(CSc2nncn2N)cc1[N+](=O)[O-]	5	2.3	13	6	14	-27	2131
Cc1ccc(S(=O)(=O)N[C@@H](CO)C(=O)N[C@@H](Cc2ccc(O)cc2)C(=O)O)cc1	8	6.0	6	6	1	-1	3880
CCOC(=O)c1cnc(-n2nc(C)cc2C)nc1Nc1ccc(N(C)C)cc1	-15	1.9	2	14	4	-12	3683
CN1c2ccsc2C(=O)/C(=C\Nc2cccc(C(F)(F)F)c2)S1(=O)=O	3	1.6	15	3	-13	.	.
O=S(=O)(c1ccc2nnn(OCc3ccccc3)c2c1)N1CCOCC1	1	2.6	2	-1	1	4	?
COc1ccc(S(=O)(=O)Nc2ccc(F)cc2F)cc1C(=O)N1CCOCC1	-4	2.5	-12	8	1	-10	3753
CCOc1ccc(S(=O)(=O)n2ccnc2)c2ccccc12	2	0.9	-3	-5	-9	9	5756
Cc1cccc(NC(=O)CN(C)S(=O)(=O)c2ccc(Cl)cc2)n1	-7	1.5	-7	11	-3	-14	9907
C=CCNC(=S)NNC(=O)c1ccc(OCC)cc1	-1	6.8	13	7	-7	-24	9677
CC(C)(Nc1ccccc1)C(=O)c1ccccc1	-5	11	4	4	3	-23	10014
CCN(CC)S(=O)(=O)c1csc(C(=O)NC2CCCCC2)c1	-3	6.2	4	5	24	-16	9199
COc1ccccc1NC(=O)c1ccc(NC(=O)c2ccc(=O)[nH]c2)cc1	1	1.5	-11	6	.	9	3818
CCOC(=O)NN=Cc1ccc(OCCSc2ccc(Cl)cc2)c(OC)c1	1	7.2	12	5	.	.	.
CC1(C)C=C2C(=NN(c3ccccc3)C(N)=C2C#N)CO1	.	.	.	.	-15	-7	7731
CN(C)c1cccc(C(=O)NC2CCCc3ccccc32)c1 (stereo not given)	8	4.8	6	14	2	-18	5756
O=C(NCc1ccco1)C1CCN(Cc2ccc(F)cc2)CC1	4	-5.3	.	.	-2	-9	2510
CCOC(=O)c1c(NC(=O)CSc2nc3ccc(OC)cc3[nH]2)sc2c1CC(C)(C)NC2(C)C	16	2.3	1	-3	4	-15	.
NC(=O)C1CCN(c2ccnc3cc(Cl)ccc23)CC1	4	7.5	-3	6	8	-18	4593
CCCOc1ccc(C2C(C#N)=C(N)Oc3nc[nH]c(=O)c32)cc1OC (stereo not given)	-3	3.1	2	9	-3	-4	4098
CCOC(=O)c1ccc(NC(=O)NC2CCN(CC(=O)NCc3ccc4c(c3)OCO4)CC2)cc1	-3	2.1	3	9	2	-36	6131
Cc1ccnc2c(N3C(=O)C4C5c6ccccc6C(c6ccccc65)C4C3=O)cccc12 (stereo not given)	-37	-3.1	-4	11	-9	-7	7135
O=S(=O)(NCC1CCCO1)c1cc(Cl)ccc1Cl (stereo not given)	6	3.1	0	0	-1	-6	6701
FC(F)(F)COc1nc(N2CCOCC2)nc(N(c2ccccc2)c2ccccc2)n1	30	-4.7	5	-6	6	-10	7868
O=C(Nc1ccccc1)c1cc(S(=O)(=O)NCc2ccncc2)ccc1Cl	0	2.3	12	9	13	-7	5261
COc1cccc(C(=O)c2c[nH]c(C(=O)NCc3ccco3)c2)c1	-2	-0.7	.	.	-8	-24	2510
Cc1ccc(Oc2ccc(Cl)cc2NC(=O)c2cnccn2)cc1	-7	-6.7	4	8	0	-10	?
O=C(CN(Cc1ccccc1)S(=O)(=O)c1ccc2c(c1)OCCO2)NN=Cc1cccc(Br)c1	-10	1.2	1	-7	.	.	.
CCN(CC)C(=O)CN(c1cccc(C(F)(F)F)c1)S(C)(=O)=O	3	4.1	0	2	8	2	15297
O=C(CCC(=O)Nc1nnc(C2CCCCC2)s1)NCc1ccc(F)cc1	8	4.3	5	5	-7	-22	4236
COc1ccc(C=Cc2c(-c3ccccc3OC)sc3ccccc23)cc1OC	6	-2.4	3	9	.	.	.
Cc1ccccc1N1CCN(Cc2cccc(C(=O)O)c2)CC1	-3	4.0	3	0	-8	-21	?
CN(C)Cc1c(C(=O)NN=Cc2cccc(OCc3c(F)cccc3Cl)c2)nnn1-c1nonc1N	-3	0.5	-5	-8	.	.	.
CC1(N(O)/C=C2\C=CC=CC2=O)CCCCC1=O (stereo not given)	-1	0.9	4	-2	-8	-7	4298
New compounds follow
SMILES	Sa ugtP lethal	RN4220 kill	Mtb hypoxia rep	Mtb hypoxia rep growth	BJeLR lethal	PrP 5UTR inh	Autofluor counter
CCc1nnc(NC(=O)CSc2nnc(C)n2CC2CCCO2)s1 (stereo not given)	4	3.6	1	-2	-6	-6	3774
Cc1cc(=O)oc2c(C)c(OCC(=O)NCCCn3ccnc3)ccc12	3	0.1	-1	-3	8	-15	5495
COc1ccccc1CCN1CCCC(CN(C)C(=O)c2ccc3nc[nH]c3c2)C1 (stereo not given)	1	-0.5	4	7	7	-24	6054
CCCN(CCC)S(=O)(=O)c1ccc(C(=O)NCc2ccc3c(c2)OCO3)cc1	7	5.4	1	-3	7	-5	4614
CCCCN(CC)C(=O)C1CCC(=O)N(c2ccc(OC)cc2)C1c1ccc(OC)c(OC)c1 (stereo not given)	0	5.6	12	12	.	-22	9151
